Assay outcomes: PubChem BioAssay, National Center for Advancing Translational Sciences (NCATS)
Methyltransferases – Primary Screen for Target Class Profiling of Small Molecule Inhibitors of Methyltransferases | purified enzyme, MTase-Glo SAH luminescence; hits give low values | calls only at 40 µM | hit rate 3.9% among 25,000; active = -50% or lower on at least one of six enzymes; inconclusive = the cases between; inactive = as a rule above -30% on all six;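 further: enzymes were COMT GAMT GNMT HNMT NNMT and PNMT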
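Each enzyme was reacted with SAM and its substrate, with compounds tested once at 40 uM; SAH formed was read by MTase-Glo luminescence.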
Calls only; i = inactive; ? = inconclusive; + = active, no number. On the % scale 0 is the no-effect control and ±100 the full control effect.

SMILES | Methyltransferases
CN1CCC(Cc2ccc(C(=O)N3CCCC3)cc2)CC1 | i
CC(=O)N[C@H](C(=O)O)C(C)(C)SN=O | i
Cc1ccc(-c2n[nH]n3c2nc(=O)c2ccc(C(=O)NCc4ccc(F)cc4)cc23)cc1 | i
NC(=O)C1CCN(C(=O)CCc2nnc3n(Cc4ccc(F)cc4)c(=O)c4ccccc4n23)CC1 | i
CCc1cc(S(=O)(=O)O)c2cc(C(C)C)cccc1-2 | i
COC(=O)C(N)Cc1ccc(Cl)cc1 (stereo unspecified) | i
CCNC(=O)N1CCOc2ccc(CCC(=O)N3CCCCC3c3cccnc3)cc2C1 (stereo unspecified) | i
COc1cccc(CC(=O)N2CCC(CC3CC3)(NC(=O)c3ccccc3)CC2)c1 | i
COCCNC(=O)c1cc2n(n1)CC(C)(C(=O)NCCC(C)C)N(C)C2=O (stereo unspecified) | i
Cc1noc(C)c1C(=O)N1CCN(S(=O)(=O)c2ccc(Cl)nc2)C(=O)C1 | i
CC(C)CN1CC(C(=O)NCc2nc(-c3ccccc3)no2)CC1=O (stereo unspecified) | i
CC(C)c1cc(C(=O)N2C[C@@H](C)[C@](O)(C3CC3)C2)nc2ncnn12 | i
CN1C(=O)c2cc(C(=O)NCc3ccccc3)nn2CC1(C)C(=O)NC1CCCCC1 (stereo unspecified) | i
CNC(=O)c1cccn2nccc12 | i
CC(C)c1ccc(NS(=O)(=O)c2cc3c(cc2Cl)n(C)c(=O)n3C)cc1 | i

New compounds follow.
SMILES | Methyltransferases
CC1(C(=O)NC2CCCCCCC2)Cn2c(cc3occc32)C(=O)N1C1CCCC1 (stereo unspecified) | i
COc1ccc(C(=O)N2CCCC(c3nc(-c4ccccc4)no3)CCNC(=O)CC2)cn1 (stereo unspecified) | i
O=C(Nc1ccnn1C1CCN(Cc2ccc(-c3ccccc3)cc2)CC1)C1CC1 | i
CN1CCN(c2ncnc3sc4c(c23)CCNC4)CC1 | +
CC1=C[C@@H](CNC2CCOCC2)[C@H](C(C)C)C[C@H]1Cc1nc2ccc(F)cc2[nH]1 | ?
Cc1cccc(C)c1NS(=O)(=O)c1ccc2[nH]c3c(c2c1)CCCC3 | i
CCCCN1C(=O)c2cc(C(=O)Nc3ccc(OC)cc3OC)nn2CC1(C)C(=O)NC1CCCC1 (stereo unspecified) | i
CC(C)(C)c1cc2n(n1)CC(C)(C(=O)NC1CCCCC1)N(Cc1ccccc1)C2=O (stereo unspecified) | i
Cc1cccc(-c2noc(CCC(=O)N3CCC(C)(c4noc(C)n4)CC3)n2)c1 | i
COc1ccc(C(=O)Cn2nc3n(Cc4ccc(F)cc4)c(=O)c4ccccc4n3c2=O)cc1 | i
COc1ccc(C[C@H](NC(=O)[C@@H]2C[C@H](NC(=O)Nc3ccc(F)cc3F)CN2C(=O)CC(C)(C)C)C(N)=O)cc1 | i
CC(=O)NCC1CN(C(=O)NCc2ccc(OC(F)(F)F)cc2)CC12CCCCC2 (stereo unspecified) | i
COC(=O)C1=CO[C@@H](O[C@@H]2O[C@H](CO[C@@H]3O[C@H](COC(=O)/C=C/c4cc(OC)c(O)c(OC)c4)[C@@H](O)[C@H](O)[C@H]3O)[C@@H](O)[C@H](O)[C@H]2O)[C@@H]2C(CO)=CC[C@H]12 | +
Cn1c(=O)n(C)c2cc(S(=O)(=O)NCCC(=O)O)ccc21 | i
COc1ccccc1OCc1cc(C(=O)N2CCCCCCCC2)n[nH]1 | i

Further records follow:
SMILES | Methyltransferases
CCOC(=O)c1cc2n(n1)CC(C)(C(=O)NCCC(C)C)N(c1ccc(CC)cc1)C2=O (stereo unspecified) | i
O=C1COc2ccc(S(=O)(=O)N3CCCn4nc(CO)cc4C3)cc2N1 | i
CC1(C)CC[C@]2(C(=O)O[C@@H]3O[C@H](CO)[C@@H](O)[C@H](O)[C@H]3O)CC[C@]3(C)C(=CCC4[C@@]5(C)C[C@@H](O)[C@H](O)C(CO)(CO)C5CC[C@]43C)C2[C@@H]1O (stereo partly specified) | +
COc1cccc(-c2nc3cc(SC)ccc3cc2CN(C)Cc2ccno2)c1 | i
COc1cccc(CN2C(=O)c3cc4ccccc4n3CC2(C)C(=O)NC2CCCCC2)c1 (stereo unspecified) | i
COc1ccc(NS(=O)(=O)c2cc3c(cc2C)n(C)c(=O)n3C)cc1OC | i
CCN(CCCNC(=O)CCc1nnc2n(CCc3ccccc3)c(=O)c3ccccc3n12)c1cccc(C)c1 | i
O=C(C1CCCN1C(=O)Cc1ccc(F)cc1)N1CCC(N2CCOCC2=O)CC1 (stereo unspecified) | i
O=C(c1c(F)ccc(NS(=O)(=O)N2CC[C@@H](F)C2)c1F)c1c[nH]c2ncc(-c3cnc(C4CC4)nc3)cc12 | i
O=C(NCCc1ccc(Cl)cc1)c1ccc2c(=O)[nH]c3c(C(=O)NC4CCCC4)sc(=S)n3c2c1 | +
CNC(=O)c1noc(CNC(=O)C(c2cccc(F)c2)N(C)C)n1 (stereo unspecified) | i
CS(=O)(=O)N(CC(=O)NCC1CC1)c1cc(C(F)(F)F)ccc1Cl | i
Cc1nc(C)c2c(n1)N(Cc1ccc(-c3ccccc3-c3nn[nH]n3)cc1)C(=O)CC2 | i
Cc1ccccc1CNC(=O)C1(C)Cc2ccccc2C(=O)N1Cc1ccccc1 (stereo unspecified) | i
CCc1cccc(N2C(=O)CSc3c(c4ccccc4n3C)C2C(=O)NCCC(C)C)c1 (stereo unspecified) | i

Remaining list, next part.
SMILES | Methyltransferases
CC(C)NC(=O)c1ccc2c(=O)n(C(C)C)c3nn(CC(=O)N(C)c4ccccc4)c(=O)n3c2c1 | i
O=C(Cn1ccc2cc(S(=O)(=O)N3CCCC3)ccc21)NC1CCCc2ccccc21 (stereo unspecified) | i
Cc1nc2ccc(C(=O)NC(C(=O)O)c3c(C)n[nH]c3C)cc2[nH]1 (stereo unspecified) | i
C=C1CC/C=C(/C(=O)O)CCC2C1CC2(C)C (stereo unspecified) | i
C=CC(C)(O)C1CC2C3(C)CCCC(C)(C)C3C(O)C(O)C2(C)O1 (stereo unspecified) | i
COc1ccc(N(C(=O)c2ccncc2)S(=O)(=O)c2ccc3c(c2)n(C)c(=O)n3C)cc1 | i
COc1ccccc1CCN1C(=O)c2ccc(-c3ccco3)n2CC1(C)C(=O)NC1CCCCCC1 (stereo unspecified) | i
CSc1ccc(CN2C(=O)c3ccc(-c4ccco4)n3CC2(C)C(=O)NC2CCCCCC2)cc1 (stereo unspecified) | i
CN(CC1(C)CCOCC1)C(=O)c1ccccn1 | i
CC(=O)C=C=C1C(C)(C)CC(O[C@@H]2O[C@H](CO)[C@@H](O)[C@H](O)[C@H]2O)CC1(C)O (stereo partly specified) | i
COc1cccc(CNC(=O)N2Cc3c(sc4c3CCCC4)-n3cccc3C2c2ccccc2)c1 (stereo unspecified) | i
CCCCOC(=O)COc1ccc2c(-c3ccccc3)cc(=O)oc2c1C | i
CCOC(=O)c1cc2n(n1)CC(C)(C(=O)NC1CCCCC1)N(c1cccc(SC)c1)C2=O (stereo unspecified) | i
O=C1NC(Cc2ccccc2)C(=O)N2CCCC12 (stereo unspecified) | i
O=C(O)C1=CC(=C(c2ccc(O)c(C(=O)O)c2)c2ccc(O)c(C(=O)O)c2)C=CC1=O | +

Further results.
SMILES | Methyltransferases
O=C(C1CCOC1)N1CCC(C(=O)O)(n2ccc(-c3ccco3)n2)CC1 (stereo unspecified) | i
O=C1CN(Cc2ccccc2Cl)S(=O)(=O)c2ccccc2N1Cc1ccc(F)cc1 | i
COC(=O)/C=C/C=C/C(=O)OC1C=C2COC(=O)C2(O)C2(C)CCCC(C)(C)C12 (stereo unspecified) | i
NCCS(=O)O | i
CCO[C@H]1CN(Cc2cnc(SCc3ccccc3)nc2)C[C@@H]1O | i
COc1cccc(C2c3cccn3-c3sc4c(c3CN2C(=O)Nc2ccccc2)CCCC4)c1 (stereo unspecified) | i
CN1C(=O)c2cc(NC(=O)c3ccc(Cl)cc3)ccc2N2CCN=C12 | i
CC(C)Cn1c(=O)c2ccc(C(=O)NC3CCCC3)cc2n2c(=O)n(Cc3cccc(F)c3)nc12 | i
CC(=O)NC(CCC(=O)O)C(=O)NCCc1ccc(O)cc1 (stereo unspecified) | i
COC(=O)c1cc2n(n1)CC(C)(C(=O)NC1CCCCCC1)N(c1cccc(F)c1)C2=O (stereo unspecified) | i
CN(CC(=O)Nc1ccc(F)cc1F)S(=O)(=O)c1ccc2[nH]c3c(c2c1)CCCC3 | i
CCCN1CCN(C(=O)c2cc3n(n2)CC(C)(C(=O)NC2CCCC2)N(C)C3=O)CC1 (stereo unspecified) | i
COc1ccccc1CN1C(=O)c2cc3oc(C)cc3n2CC1(C)C(=O)NC1CCCCCCC1 (stereo unspecified) | i
COc1ccc(-c2ccc3nnc(CNC(=O)c4ccoc4)n3n2)cc1 | i
Cc1ccc(C2c3cccn3-c3sc4c(c3CN2C(=O)Nc2ccc(F)cc2F)CCCC4)cc1 (stereo unspecified) | i

Additional entries follow:
SMILES | Methyltransferases
O=C(Nc1nc2cccc(-c3ccc(CN4CCS(=O)(=O)CC4)cc3)n2n1)C1CC1 | ?
CC1(C(=O)NC2CCCCC2)Cc2ccccc2C(=O)N1CCN1CCOCC1 (stereo unspecified) | i
COCCNC(=O)[C@@H]1CCC[C@@H](NC(=O)c2c(-c3ccccc3)noc2C)CN(C)C(=O)C1 | i
CCc1cccc(NC(=O)Cn2nc3n(CC(C)C)c(=O)c4ccc(C(=O)NCC(C)C)cc4n3c2=O)c1 | i
Cc1nn2c(c1-c1ccccc1Oc1ccccc1)N(C(=O)c1cccc(C#N)c1)CCC2 | i
CN1C(=O)CO[C@H]2CN(c3ccc(C#N)cn3)C[C@H]21 | i
Cc1ccc(Cl)cc1N1C(=O)c2cc(-c3cccs3)nn2CC1(C)C(=O)NC1CCCCC1 (stereo unspecified) | i
CC(=O)OC1CC2(C)C3=CCC4(C)C5C(O)C(O)C(C(C)C)C5(C)CCC4(C)C3CCC2C(C)(C)C1OC1OC(CO)C(O)C(O)C1O (stereo unspecified) | i
CC1CCN(CCCNC(=O)CCc2nnc3n(Cc4ccccc4)c(=O)c4ccccc4n23)CC1 | +
Cc1cc(NC(=O)N2CCn3cccc3C2Cc2ccccc2)ccc1Br (stereo unspecified) | i
CC1(C(=O)NC2CCCC2)Cn2cnc(C(=O)NCCC3=CCCCC3)c2C(=O)N1C1CC1 (stereo unspecified) | i
COc1ccc(OC)c(CN2CCC3(CC2)Nc2ccccc2NC3=O)c1 | i
Cc1ccc(C)c(NS(=O)(=O)c2ccc3[nH]c4c(c3c2)CCCC4)c1 | i
CC1(C(=O)NCc2ccccc2)Cn2c(nc3ccccc32)C(=O)N1CCc1ccco1 (stereo unspecified) | i
Cn1cccc1-c1noc(C2CCN(C(=O)CCCc3ccccc3)C2)n1 (stereo unspecified) | i

(more compounds)
SMILES | Methyltransferases
CCOC(=O)C1CCN(c2nc3c(S(=O)(=O)c4ccc(C(C)C)cc4)nnn3c3ccccc23)CC1 | i
CCCNc1ccc2nncn2n1 | i
CCOc1ccc(C2c3cccn3-c3sc4c(c3CN2C(=O)Nc2ccccc2)CCCC4)cc1 (stereo unspecified) | i
CCCN1C(=O)c2c(C(=O)NCc3cc(Br)ccc3OC)ncn2CC1(C)C(=O)NCCC(C)C (stereo unspecified) | i
COc1ccccc1CNC(=O)C1(C)Cn2nc(-c3ccccc3)cc2C(=O)N1c1ccc(C)cc1 (stereo unspecified) | i
Cc1cccc(Nc2nc(N)nc(CN3CC[C@@](O)(C4CCC4)[C@H](C)C3)n2)c1 | i
COc1ccc(Br)cc1S(=O)(=O)NC(=O)/C=C/c1ccccc1Cc1ccc2ccccc2c1 | ?
O=C(COC(=O)C(Cc1c[nH]c2ccccc12)NC(=O)c1ccco1)c1ccc(Br)cc1 (stereo unspecified) | i
CC1(C(=O)NC2CCCCCC2)Cn2c(cc3occc32)C(=O)N1Cc1cccnc1 (stereo unspecified) | i
O=C(CCn1ccc2cc(S(=O)(=O)N3CCCC3)ccc21)NCc1ccccc1 | i
CCOCCCN1C(=O)c2cc3c(OC)ccc(OC)c3n2CC1(C)C(=O)NC1CCCCCC1 (stereo unspecified) | i
N#C/C(=C\c1ccc(O)c(O)c1)C(=O)NCCc1ccccc1 | ?
CC1=CC(=O)C(C(C)C)=C/C1=N/OC(=O)c1ccccc1C | ?
CCn1c2ccccc2c2cc(Nc3ccnc(NCCCN4CCOCC4)n3)ccc21 | +
O=C1CCN(C(=O)c2ccco2)CCCC(C(=O)NCc2ccccc2)CCN1 (stereo unspecified) | i
NC1(C(=O)O)CC1 | i
Cc1nc2ccc(CN(C)c3ccc(C(=O)N[C@@H](CCC(=O)O)C(=O)O)s3)cc2c(=O)[nH]1 | ?

An excerpt (hit frequency here may not be typical).
